Bioassay records (PubChem BioAssay)
T cruzi inh – inhibitors of intracellular T. cruzi growth, primary screen, luminescence, NIH3T3 host cells. inhibition, % (no concentration beside the values). 300,000 tested, 1.4% active. T. cruzi beta-gal in NIH3T3, 90 h;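 active = mean inhibition across valid replicates above about 55%, limit read from the data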;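 note: signal also drops with host cell toxicity which is not excluded here; 0% = plate median of DMSO wells and 100% = zero luminescence signal; higher percent means less beta-gal luminescence so fewer parasites; stock transfer was 50 nL into about 50 µL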
AF4-AF9 inh – inhibitors of AF4 peptide binding to AF9, primary screen, biochemical, AlphaScreen, biotin-AF4 peptide, FLAG-AF9, single point | AID 651704, 2012 | 350,000 tested, 0.47% active | inhibition, % at 10 µM;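 active = every replicate reaching a set inhibition limit, whatever the replicate mean, cut at about 25% in these data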;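 note: 0% = plate neutral control median and 100% = total signal loss; the record names both 10 and 1 µM as test concentration; the first replicate is given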
Target sequence (P42568 whole entry, looked up): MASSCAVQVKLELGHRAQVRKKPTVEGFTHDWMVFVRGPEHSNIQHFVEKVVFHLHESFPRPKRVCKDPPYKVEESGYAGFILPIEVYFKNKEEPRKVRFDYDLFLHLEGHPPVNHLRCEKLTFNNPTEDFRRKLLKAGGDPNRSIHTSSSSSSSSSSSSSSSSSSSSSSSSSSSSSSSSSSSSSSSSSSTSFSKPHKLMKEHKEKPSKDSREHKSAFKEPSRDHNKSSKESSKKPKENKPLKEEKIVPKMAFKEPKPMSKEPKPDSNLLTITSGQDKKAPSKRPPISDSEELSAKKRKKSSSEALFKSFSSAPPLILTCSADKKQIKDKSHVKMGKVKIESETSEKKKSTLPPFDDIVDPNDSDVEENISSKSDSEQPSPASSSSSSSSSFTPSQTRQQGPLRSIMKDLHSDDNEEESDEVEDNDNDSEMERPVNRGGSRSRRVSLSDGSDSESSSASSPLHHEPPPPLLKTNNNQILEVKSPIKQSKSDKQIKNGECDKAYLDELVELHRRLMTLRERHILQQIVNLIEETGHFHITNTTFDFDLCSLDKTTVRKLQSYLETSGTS
rRNA inh HTS – reduced GFP signal of wild-type E. coli, primary screen, bacterial rRNA inhibitor project, GFP/RFP fluorescence, OD600, single point; GFP signal change (wild-type ribosome), % (test concentration not listed); 350,000 tested, 1.6% active; AID 720706, 2013; E. coli WT GFP vs humanized-ribosome RFP mutants, 24 h; active compounds read low; DMSO median 0, no signal -100;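 active = significant combined selectivity score with lowered wild-type GFP, culture density cut under 30%, mutant RFP and density less affected; inactive = any of these conditions unmet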; note: one replicate is shown; some compounds called inactive have numbers as strong as hits
Bfl-1 A1 inh – caspase 3/7 activation in MEF A1-2A-BIM cells, primary screen, A1 inhibitor project, cell-based, luminescence, HTS | caspase activation, % (concentration not given with the values) | 330,000 tested, 0.066% active | Caspase-Glo 3/7 luminescence, 3 h; percent of clofoctol response, vehicle zero;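 active = over half of replicate activation scores above 10%, or exactly half above 10 with the replicate mean above 10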;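 note: wells of about 30 µL received 50 nL stock; many hits fall short of the cut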
Ecoli growth – E. coli growth inhibition, primary screen, OD600. 330,000 tested, 0.21% active. AID 1053175, 2014. OD600 absorbance (test concentration not listed). Escherichia coli growth, 23 h; active compounds read low;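 active = OD600 absorbance below the run mean of sample wells minus 3.6 SD, in any replicate, cut at about 0.56 in these data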;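 note: stock transfer was 300 nL into about 60 µL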
FGF22 binding – binders of human FGF22 protein, primary screen, FGF22 synaptogenesis inhibitor project, biophysical, thermal shift, single point; Fibroblast growth factor 22 (Homo sapiens), Q9HCT0; 340,000 tested, 1.5% active; calls only at 9.99 µM; AID 651658, 2012; recombinant FGF22 thermal shift, SYPRO orange fluorescence; percent of sucrose octasulfate shift, DMSO zero;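 active = melting point raised past a set limit in the mean and every replicate; three in four hits are not shown here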
Target sequence (Q9HCT0 whole entry, looked up): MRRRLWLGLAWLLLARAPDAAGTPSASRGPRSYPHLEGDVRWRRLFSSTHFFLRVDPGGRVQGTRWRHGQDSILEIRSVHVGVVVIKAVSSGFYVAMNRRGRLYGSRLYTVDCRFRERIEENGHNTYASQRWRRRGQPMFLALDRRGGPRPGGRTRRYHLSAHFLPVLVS
Beta cell apopt – inhibitors of cytokine-induced beta cell apoptosis, primary screen, luminescence. INS-1E cytokine-induced death, ATP luminescence, 48 h; percent of positive-control rescue, neutral wells zero. protection from apoptosis, % (test concentration not listed). 300,000 tested, 0.8% active;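 active = all replicates at 75% or more, or half of them and the mean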;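 note: 0% = cytokine-treated negative control wells and 100% = positive control rescue; higher means more ATP so stronger rescue from cytokine killing; wells of about 40 µL received 100 nL stock; the first replicate is given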
UCH37 inh – inhibitors of human UCH37 deubiquitinase, primary screen, biochemical, Ub-AMC cleavage, fluorescence; Ubiquitin carboxyl-terminal hydrolase isozyme L5 (Homo sapiens), Q9Y5K5; purified proteasome/UCH37; inhibition, % (concentration not given with the values); 330,000 tested, 0.33% active; AID 588478, 2011;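 active = mean of two replicates above 20%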;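 note: 0% = compound-free wells with enzyme and 100% = wells lacking proteasome; stock transfer was 100 nL into about 20 µL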
Target sequence (Q9Y5K5 whole entry, looked up): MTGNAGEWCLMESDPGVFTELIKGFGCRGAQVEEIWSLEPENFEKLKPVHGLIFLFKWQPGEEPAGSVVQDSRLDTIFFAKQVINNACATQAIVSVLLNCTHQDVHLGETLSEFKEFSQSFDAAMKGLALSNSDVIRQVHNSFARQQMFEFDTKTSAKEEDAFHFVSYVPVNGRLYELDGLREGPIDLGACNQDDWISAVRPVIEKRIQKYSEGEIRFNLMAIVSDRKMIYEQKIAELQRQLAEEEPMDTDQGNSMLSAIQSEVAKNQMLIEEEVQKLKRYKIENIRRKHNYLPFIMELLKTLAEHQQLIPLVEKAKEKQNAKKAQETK
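Material: human UCH37 enzyme supplied as purified proteasome complex. Measure: % inhibition of Ub-AMC cleavage fluorescence. Medium: pH 7.4 Tris-HCl (50 mM) with ovalbumin, ATP-MgCl2, DTT. Times: 30 min preincubation with enzyme, 25 min cleavage at room temperature. Detection: AMC fluorescence intensity at 355/460 nm.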
rRNA inh HTS OD600 – recorded beside rRNA inh HTS, whose call it bears; OD600 change, %; measured here: OD600 growth;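 optical density of the mix in the first replicate; 0 = DMSO median and -100 = no signal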
rRNA inh HTS RFP – second read-out of rRNA inh HTS, no call of its own (marks repeat the call); RFP signal change, %; measured here: RFP humanized mutant strains;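 first replicate; 0 = DMSO median and -100 = no signal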
* = called active by the depositor; i = inactive; x = not tested or not shown. Only part of the results is shown; rates above refer to the full screens.

SMILES	T cruzi inh	AF4-AF9 inh	rRNA inh HTS	rRNA inh HTS OD600	rRNA inh HTS RFP	Bfl-1 A1 inh	Ecoli growth	FGF22 binding	Beta cell apopt	UCH37 inh
Cc1ccc(NC(=O)CN(C)S(=O)(=O)c2cccc3cccnc23)cc1F	-24	-9.1	-28*	-14*	2.4*	1.6	0.62	i	0	1.0
CN1c2ccccc2Sc2cc(N)ccc21	71*	12	0	12	-7.1	-0.9	x	i	x	x
O=C(Nc1cccc(F)c1)N1CCC(c2ccccc2)CC1	-1	-29	-12	-24	-7.6	0.3	0.6	i	0	0.9
Cc1ccc(C)c2nc(SCC(=O)Nc3ccc4c(c3)OCO4)c(C#N)cc12	-4	-0.6	8	-2	1.2	0.4	0.68	i	-4	3.7
O=S(=O)(/C(=C/c1ccc(C(F)(F)F)cc1)c1nc2ccccc2[nH]1)c1ccccc1	41	x	x	x	x	0.9	0.62	x	100*	2.5
Cn1c(COc2ccc([N+](=O)[O-])cc2)nnc1SCC(=O)NCC1CCCO1 (stereo not given)	-2	1.1	-1	5	-3.1	0.1	0.66	i	-2	3.6
O=C(O)CC/C(=N/Nc1ncc(C(F)(F)F)cc1Cl)C(=O)O	-9	-1.7	7	7	-2.6	-0.1	x	i	-3	x
Cc1ccc(OC(C)C(=O)Nc2ccc(C)c(S(=O)(=O)Nc3ccc(C)cc3C)c2)cc1 (stereo not given)	17	x	x	x	x	1.2	0.74	x	1	2.7
N/C(=N\OC(=O)CCCCCN1C(=O)c2ccccc2C1=O)c1ccccn1	-11	0.4	-11	-8	2.1	-0.6	0.67	i	5	-0.2
CC(C)COP(=O)(c1ccc(N(C)C)cc1)C(O)c1ccccn1 (stereo not given)	-12	x	x	x	x	0.0	0.72	x	2	2.6
O=C(COC(=O)c1cc(-c2cccs2)nn1-c1ccccc1)Nc1ccc(Cl)c([N+](=O)[O-])c1	-3	-9.9	4	7	-7.5	1.6	0.72	i	-2	0.6
CCCOc1ccc(/C=C/C(=O)NCc2ccccc2)cc1	23	x	x	x	x	0.1	0.63	x	5	1.4
COc1ccc(NC(=O)NC(C)C2CC3CCC2C3)cc1 (stereo not given)	-12	0.7	-19	-27	-6.7	-1.5	0.72	i	-18	0.4
CN(C)CCN1C(=O)C(=O)/C(=C(/O)c2ccc(F)cc2)C1c1ccccc1 (stereo not given)	-6	x	x	x	x	0.1	0.75	x	-5	7.5
N#CC1(C#N)[C@@H](C(=O)C23CC4CC(CC(C4)C2)C3)C12CCOCC2	-18	x	x	x	x	0.5	0.73	x	-20	1.3
COc1ccc(C(=O)OCC(=O)c2ccc3c(c2)NC(=O)CO3)cc1[N+](=O)[O-]	x	-6.0	12	16	1.8	-1.0	0.68	i	-5	0.6
COc1cc([C@@H]2CC=C(C(=O)O)CN2S(=O)(=O)c2ccc(C)cc2)cc(OC)c1OC	x	0.3	2	0	-0.6	0.8	x	i	0	0.9
O=[N+]([O-])c1c(Nc2ccc(O)cc2)cc(Cl)c2nonc12	64*	9.4	-19	-13	-13	1.2	0.6	i	100*	14
Cc1ccc(NC(=O)Cc2nnc(SCC(=O)NC3CCCC3)n2C)cc1	-5	8.5	0	3	-0.7	0.7	0.66	i	-2	2.1
COc1ccc(S(=O)(=O)Oc2c(OC)cc(C(=S)N3CCOCC3)cc2OC)cc1	-14	1.5	2	-6	-1.2	-0.7	0.71	i	2	4.4
Cc1c(-c2c(C#N)c(N)nc3c2CCCCCC3)cnn1C	-6	x	x	x	x	2.5	0.74	x	-6	-79
O=C(CCc1ccccc1)OCCOC(=O)CCc1ccccc1	-8	-3.0	6	8	-1.7	-4.0	0.71	i	-9	-0.4
CCn1cc(C2C(C(=O)Nc3cc(C)ccn3)=C(C)NC3=C2C(=O)CC(C)(C)C3)c(C)n1 (stereo not given)	-2	x	x	x	x	-2.0	0.63	x	-2	-418
COc1ccc(-c2csc(NC(=O)C3COc4ccccc4O3)n2)cc1OC (stereo not given)	-11	4.5	x	x	x	0.5	0.82	i	-5	3.8
O=C(NC(=S)N1CCCCCC1)c1ccccc1Cl	0	-7.9	7	-7	-0.5	0.3	0.65	i	6	0.5

Sorted by length of the SMILES (ascending): 4 of the compounds above
SMILES	T cruzi inh	AF4-AF9 inh	rRNA inh HTS	rRNA inh HTS OD600	rRNA inh HTS RFP	Bfl-1 A1 inh	Ecoli growth	FGF22 binding	Beta cell apopt	UCH37 inh
O=C(Nc1cccc(F)c1)N1CCC(c2ccccc2)CC1	-1	-29	-12	-24	-7.6	0.3	0.6	i	0	0.9
O=[N+]([O-])c1c(Nc2ccc(O)cc2)cc(Cl)c2nonc12	64*	9.4	-19	-13	-13	1.2	0.6	i	100*	14
N/C(=N\OC(=O)CCCCCN1C(=O)c2ccccc2C1=O)c1ccccn1	-11	0.4	-11	-8	2.1	-0.6	0.67	i	5	-0.2
O=S(=O)(/C(=C/c1ccc(C(F)(F)F)cc1)c1nc2ccccc2[nH]1)c1ccccc1	41	x	x	x	x	0.9	0.62	x	100*	2.5

Compounds from the list above that contain fluorine:
SMILES	T cruzi inh	AF4-AF9 inh	rRNA inh HTS	rRNA inh HTS OD600	rRNA inh HTS RFP	Bfl-1 A1 inh	Ecoli growth	FGF22 binding	Beta cell apopt	UCH37 inh
Cc1ccc(NC(=O)CN(C)S(=O)(=O)c2cccc3cccnc23)cc1F	-24	-9.1	-28*	-14*	2.4*	1.6	0.62	i	0	1.0
O=C(Nc1cccc(F)c1)N1CCC(c2ccccc2)CC1	-1	-29	-12	-24	-7.6	0.3	0.6	i	0	0.9
O=S(=O)(/C(=C/c1ccc(C(F)(F)F)cc1)c1nc2ccccc2[nH]1)c1ccccc1	41	x	x	x	x	0.9	0.62	x	100*	2.5
O=C(O)CC/C(=N/Nc1ncc(C(F)(F)F)cc1Cl)C(=O)O	-9	-1.7	7	7	-2.6	-0.1	x	i	-3	x
CN(C)CCN1C(=O)C(=O)/C(=C(/O)c2ccc(F)cc2)C1c1ccccc1 (stereo not given)	-6	x	x	x	x	0.1	0.75	x	-5	7.5

(continued)
SMILES	T cruzi inh	AF4-AF9 inh	rRNA inh HTS	rRNA inh HTS OD600	rRNA inh HTS RFP	Bfl-1 A1 inh	Ecoli growth	FGF22 binding	Beta cell apopt	UCH37 inh
O=C(NC1CCCC1)C(c1ccccn1)N(C(=O)c1csnn1)c1ccc(F)cc1 (stereo not given)	5	0.5	4	9	0.8	1.0	0.69	i	-17	3.7
O=C(COC(=O)c1ccccc1NCCO)Nc1cc(C(F)(F)F)ccc1N1CCOCC1	36	-3.0	2	2	-2.8	0.1	0.67	i	-2	-323
COc1ccc(-c2n[nH]c(=S)n2Cc2ccccc2)cc1	8	-9.7	-27	-31	-4.0	-0.1	0.66	i	2	0.7
Cc1ccccc1C(=O)Nc1ccnn1C1CCN(Cc2ccc(CO)o2)CC1	-16	1.2	6	9	-4.0	-0.2	0.7	i	1	0.9
CCOC(=O)c1cnc(SCC(=O)Nc2nc(C)c(C)s2)nc1N	-7	x	x	x	x	-0.2	0.64	x	-1	3.2
CCN=C1S/C(=C/c2ccc(-c3ccc(F)cc3)o2)C(=O)N1CC	-1	-3.6	8	11	3.1	-0.7	0.72	i	6	-41
Cc1ccc(CNC(=O)CN(c2ccc(C)cc2)S(=O)(=O)c2c(C)n[nH]c2C)cc1	2	-0.9	-17	-12	2.8	0.0	0.7	i	8	6.7
Cn1cc(/C=N/Nc2ccccc2)c2ccccc21	7	11	4	7	-0.1	-0.5	x	x	-1	x
CCN1CCN(CCNC(=O)Cn2c(=O)c3cccn3c3ccc(F)cc32)CC1	13	1.8	10	2	3.8	-0.2	0.69	i	-2	0.6
CCC(=O)N1CCN(c2ccc(Cl)cc2NC(=O)c2ccc([N+](=O)[O-])o2)CC1	47	-0.3	6	9	-0.7	0.7	0.72	i	28	3.9
O=C(O)c1ccc(-n2ncc3c2/C(=C\c2cccc([N+](=O)[O-])c2)CC3)cc1	x	3.5	-12	-1	-2.6	x	0.71	i	x	5.8
COc1ccc(-c2cc(CC3(C(=O)O)CCN(C(=O)OC(C)(C)C)CC3)on2)c(OC)c1	-19	-1.4	-4	-5	-1.6	-0.7	x	i	-2	x
CCO[C@H]1OC(C(=O)NCc2ccccc2)=C[C@@H](C2CC2)[C@@H]1CCCO	-13	-3.7	0	-11	1.1	-1.2	x	i	5	4.5
CC(C)c1ccc(C2c3[nH]c4ccccc4c3C[C@H]3C(=O)N(c4ccccc4C(=O)N4CCC[C@H]4C(=O)O)C(=O)N23)cc1 (stereo not given in full)	5	2.9	-18	-14	2.3	1.9	0.79	i	-5	4.9
Fc1ccc2cc(-c3ccsc3)ncc2c1	x	x	7	4	-2.4	-1.7	0.63	i	-6	-292
O=C(COc1ccccc1)Nc1ccc2c(c1)nc1n2CCOC1	-9	x	x	x	x	-0.5	0.68	x	3	5.0
CC(=O)NCC1COc2ccccc2O1 (stereo not given)	14	-6.0	12	2	6.0	-0.5	0.68	i	-3	3.1
COc1ccc(/C(N)=N/OC(=O)Cc2ccccc2)cc1	3	-4.2	-24	-20	2.0	-1.7	0.69	i	-2	1.2
CCN(CC)c1ccc(/C=N/NC(=O)c2ccc3c(c2)OCCO3)cc1	14	1.4	2	3	-1.1	x	x	i	x	x
O=S(=O)(Nc1ccc(-c2cnco2)cc1)c1ccccc1	-19	x	-25*	-12*	6.0*	-0.5	0.67	i	-7	4.5
O=C(/C=C/c1ccc(F)cc1)c1ccccc1Br	-20	x	x	x	x	0.1	0.68	x	-11	4.6
COc1ccc(C(=O)Nc2cccc(S(=O)(=O)NC3=NCCC3)c2)cc1OC	x	5.4	-1	6	0.6	0.4	0.67	i	-4	3.0
O=C(Nc1ccc(S(=O)(=O)NC2CCCC2)cc1)c1cnccn1	-9	x	x	x	x	0.4	0.69	x	-2	1.7
O=C(O)c1cccc(N/N=C/c2ccc(OC(F)(F)F)cc2)c1	-9	5.6	-7	7	-3.9	-7.6	x	i	-3	x
COc1ccc(Cn2nnnc2C(c2cc3cccc(C)c3[nH]c2=O)N2CCOCC2)cc1 (stereo not given)	-9	x	x	x	x	0.7	0.72	x	-2	-9.3
Cc1cccc(C(=O)Nc2cc(S(=O)(=O)N3CCOCC3)ccc2N2CCCCC2)c1	x	2.4	1	-5	1.6	-0.8	0.67	i	-4	3.7
COc1ccc(/C=C(\NC(=O)c2ccco2)C(=O)Nc2ccc(C(C)=O)cc2)cc1	x	-1.0	-6	0	-3.5	-0.8	0.68	i	6	4.4
COc1ccc(C)cc1S(=O)(=O)N(C)CC(=O)NCc1ccco1	-14	x	x	x	x	0.1	0.72	x	-3	1.0
CN(C(=O)CSc1cccc[n+]1[O-])C1CCCCC1	x	-5.8	2	4	-2.6	-0.2	0.67	i	-4	0.6
NC(=O)c1ccccc1N/C=C/C(=O)c1ccc(Cl)cc1	-1	x	x	x	x	-6.9	0.7	x	27	-16
